# VDR inhibitor = Inhibitors of the vitamin D receptor (VDR): qHTS; Vitamin D3 receptor (Homo sapiens), P11473; VDR-SRC2-3 peptide fluorescence polarization, 2 h; Potency, µM, for inactives: max response, negative = inhibition, usual class: inhibitors; 400,000 compounds, 0.93% hits; AID 504847, 2011; active = well fitted inhibition curve with a large enough effect; inconclusive = small, poorly fitted or top-dose-only effect, or another doubt; inactive = no such curve, though single readings can be large or run the other way; note: series mostly up to about 120 µM
# Target sequence (P11473 whole entry, looked up): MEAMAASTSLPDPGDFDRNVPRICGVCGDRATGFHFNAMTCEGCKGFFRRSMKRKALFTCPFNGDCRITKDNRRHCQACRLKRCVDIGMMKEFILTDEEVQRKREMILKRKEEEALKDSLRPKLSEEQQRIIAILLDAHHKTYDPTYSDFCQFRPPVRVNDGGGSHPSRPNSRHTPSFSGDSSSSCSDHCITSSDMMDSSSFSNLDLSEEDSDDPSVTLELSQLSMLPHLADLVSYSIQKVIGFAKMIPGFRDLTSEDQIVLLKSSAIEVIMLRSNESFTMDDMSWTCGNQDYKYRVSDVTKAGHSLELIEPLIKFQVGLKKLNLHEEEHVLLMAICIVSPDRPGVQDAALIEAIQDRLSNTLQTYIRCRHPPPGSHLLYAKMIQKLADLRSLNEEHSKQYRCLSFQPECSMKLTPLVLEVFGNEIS
#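 Signal is fluorescence polarization, reporting how far test compounds block the interaction of VDR with the SRC2-3 coregulator peptide after a 2 h room-temperature incubation.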
# * hit, by the source's call; ? = inconclusive; & = joins results of further samples; [ ] = dose if it differs, or a comment. % is set by controls: 0 for no effect and ±100 for the full control effect; potency is the fitted concentration of half-maximal effect.
SMILES,VDR inhibitor
COc1ccccc1N1CCN(C(=O)CCS(=O)(=O)c2ccc3c(c2)NC(=O)C(C)S3)CC1 (stereo not given),-21%
O=C(O)c1cccc(-n2cccc2/C=C2/SC(=O)N(CC(=O)N3CCCC3)C2=O)c1,8%
CCOC(=O)c1ccc(NC(=O)c2cn(-c3ccccc3)nc2-c2ccncc2)cc1,24%
CC(C)NC(=O)CN1C(=O)CCn2nc(-c3cn(C)c4ccccc34)cc21,16%
CCc1c(C)c2cc(Cl)c(O)c(CN(C)C)c2oc1=O,-11%
COC(=O)C(NC(=O)c1ccco1)(Nc1nc(C)cs1)C(F)(F)F (stereo not given),-6%
Cc1cccc(NC(=O)CSc2ccc(-c3ccco3)nn2)c1C,-19%
COc1ccccc1OCC(=O)NNC(=O)c1c(-c2ccccc2Cl)noc1C,-2%
Cc1ccc(NNC(=O)C(=O)N2CCCCC2)cc1,-1%
COc1cc(C(=O)OCC(=O)NC(=O)NC2CCCCC2)cc(Cl)c1OC,-23%
COc1cccc(C(=O)Nc2ccc3c(c2)CCCN3C(=O)c2cccs2)c1OC,-5%&7%
CCOC(=O)C1=C(COC(=O)C2(C)CC2(Cl)Cl)NC(=O)NC1c1ccc(OC)cc1 (stereo not given),-14%
C/C(=N\n1cnnc1)c1ccccc1,-13%
COc1cc(C(=O)NNC(=S)NC(=O)c2ccc3c(c2)OCO3)cc(OC)c1OC,2%
Cc1cc(C)c2sc(N(CCN(C)C)C(=O)c3c(F)cccc3F)nc2c1,0%
Cc1nn(Cc2ccccc2)c(C)c1/C=N/NC(=O)c1ccncc1,-2%
Cc1cc(C)c(NC(=S)N(CCCN2CCOCC2)Cc2cccnc2)c(C)c1,2%
CCN(CC)C(=O)C1=C(C)NC(=S)NC1c1cccs1 (stereo not given),-12%
CC(C)(CN1CCOCC1)NS(=O)(=O)c1ccccc1,-3%
O=C(NCC(c1ccco1)N1CCCCC1)c1cccc(S(=O)(=O)Nc2ccccc2Cl)c1 (stereo not given),-4%
O=C(CCSc1ccccc1)NCCSc1ccccn1,3%
CCNc1cc2c(cc1O)CCC1C2CCC2(C)C(O)CCC12 (stereo not given),79µM*
CCOC(=O)c1ccc(Nc2ncccc2[N+](=O)[O-])cc1,-8%
CCOC(=O)c1ccccc1NC(=O)COC(=O)c1ccc(C)c(S(=O)(=O)N2CCOCC2)c1,-8%
CC(C(=O)NC1CCCC1)N(C(=O)CS(=O)CC(=O)Nc1ccc(F)cc1)c1ccc2c(c1)OCCO2 (stereo not given),5%
SMILES,VDR inhibitor
Cc1nc(COc2ccc(C(=O)NCc3ccccc3CN3CCCCC3)cc2)cs1,10%
O=C(Nc1cccc2cccnc12)c1ccc(F)cc1,5%&8%
CCOC(=O)CNC(=O)N1CCCC(Cc2ccccc2)(C(=O)OCC)C1 (stereo not given),0%
COc1ccc(CCNC(=O)c2ccc3c(c2)N(Cc2cccc(C)c2)C(=O)c2ccccc2S3(=O)=O)cc1OC,3%
COc1cccc(NC(=O)/C(C#N)=C/c2c(C)n(Cc3ccc(Cl)cc3)c3ccccc23)c1,-17%
O=C(CNC(=O)C(c1ccccc1)c1ccccc1)OCc1ccccc1,5%
O=C1N[C@@H](Cc2ccccc2)C(=O)N2[C@H]1C[C@]1(Br)c3ccccc3N(S(=O)(=O)c3ccc(F)cc3)[C@H]21,-24%
CCOc1ncccc1C(=O)NCCc1c[nH]c2ccccc12,2%
COc1cc(/C=C(\CC(=O)O)c2nc3ccccc3s2)ccc1OCC(=O)Nc1ccccc1F,-17%
CC(=O)N1CCc2cc(S(=O)(=O)NC(C(=O)NC(C)c3ccccc3)C(C)C)ccc21 (stereo not given),-4%
CCOC(=O)[C@@H]1[C@H]2COc3ccccc3[C@H]2N2C(=O)N(c3ccc(Cl)cc3)C(=O)[C@]12C,-1%
CN=C1S/C(=C\c2cc(C)n(-c3ccccc3F)c2C)C(=O)N1C,-13%
CN(C)S(=O)(=O)N1CCC(Oc2cccc(C(=O)NCCC3=CCCCC3)c2)CC1,-14%
O=C(CCC(=O)c1cccs1)NC1CCCCCC1,?
CCS(=O)(=O)N1CCC(C(=O)NCCC(C)C)CC1,6%
O=C(NCCc1nc2ccccc2[nH]1)c1ccc([N+](=O)[O-])cc1,-8%
CCOC(=O)N1C(=O)[C@](CC)(c2ccccc2)N1C(=O)OCC,79µM*
Cc1cccc(/C(N)=N/OC(=O)c2ccc(Br)o2)c1,-13%
CC(=O)Nc1ccc(S(=O)(=O)Nc2cccc(-n3c(C)nc4ccccc4c3=O)c2)cc1,2%
Cc1cc(OCC(=O)NNC(=S)NC(=O)c2ccc(Br)o2)ccc1Cl,-6%
O=C(CCN1C(=O)C2C3CCC(C3)C2C1=O)OCC(=O)c1ccc(Cl)cc1 (stereo not given),-6%
CC(C)c1nn2c(N)c(/C=C3\C=Nc4ccccc43)c(=O)nc2s1,16%
COc1cccc(C(=O)NCCS(=O)(=O)NCc2cccnc2)c1,1%
CC1(c2ccc3c(c2)OCCO3)NC(=O)N(CC(=O)c2ccc[nH]2)C1=O (stereo not given),-4%
COC(=O)CCCCCCCCCC[N+]1(C)CCCCC1,-9%

# In the list so far, 3 have two or more sulfur atoms.
SMILES,VDR inhibitor
COc1ccccc1N1CCN(C(=O)CCS(=O)(=O)c2ccc3c(c2)NC(=O)C(C)S3)CC1 (stereo not given),-21%
CCN(CC)C(=O)C1=C(C)NC(=S)NC1c1cccs1 (stereo not given),-12%
O=C(CCSc1ccccc1)NCCSc1ccccn1,3%

# New compounds follow:
SMILES,VDR inhibitor
Cc1cnc([N+](=O)[O-])n1CCOC(=O)NC(=O)c1ccccc1Cl,3%
COc1ccccc1N1CCN(C2CCCN(C(=O)CCC(=O)N(C)C)C2)CC1 (stereo not given),-27%
CCC(=O)N1CCc2cc(Br)cc(S(=O)(=O)NCCCN(CC)Cc3ccccc3)c21,-12%
CCOC(=O)c1[nH]ncc1CN1CCCC(C(=O)c2ccc(C(C)(C)C)cc2)C1 (stereo not given),-12%
Cc1cc(F)ccc1S(=O)(=O)N1CCCOC1CNC(=O)C(=O)NCCc1ccccc1 (stereo not given),-12%
C/C(=N/NC(=O)CNC(=O)c1cccc(F)c1)c1ccc2c(c1)CCCC2,5%
CCOc1ccccc1NC(=O)CCS(=O)(=O)c1cccc2nonc12,7%
CC(=O)c1cccc(NC(=O)C(=O)c2cn(CC(=O)N3CCCCC3)c3ccccc23)c1,?
CC1(C)CC(=O)c2cc(NC(=O)c3ccccc3)c(=O)oc2C1,-29%
C/C(=N\NC(=O)COc1ccc(C(C)(C)C)cc1)c1ccc2c(c1)OCCO2,2%
CC(C)CCNC(=O)c1ccc2c(c1)N(Cc1ccccc1)C(=O)CS2=O (stereo not given),-17%
CCCSc1ncc(Cl)c(C(=O)Nc2ccc(S(=O)(=O)N(C)c3ccccc3)cc2)n1,17%
O=C(OCCO)c1ccccc1O,3%
Clc1cccc(CSc2ccc(-c3cccnc3)nn2)c1,-10%
CN(C)S(=O)(=O)c1cccc(NC(=O)CSc2nncn2C)c1,0%
CC(=O)Nc1cc(C(C)C)c(O)c(C(C)C)c1,-10%
OCC1(Cc2ccccc2)CCN(Cc2cnc(-c3cccc4ccccc34)nc2)CC1,6%
Cc1cc(-c2nn(-c3ccccc3F)cc2CN(C)CC(O)CO)c(C)s1 (stereo not given),-26%
Cc1cccc(NC(=O)C2CCN(S(=O)(=O)c3c(C)c(C)cc(C)c3C)CC2)n1,-6%
COC(=O)c1ccccc1NC(=O)N1CSC[C@H]1C(=O)OC,1%
Cc1ccc(C(=O)O)cc1-c1ccc(/C=C2\SC(=O)N(CC(=O)Nc3ccc4c(c3)OCO4)C2=O)o1,-7%
CCC1CCCCN1C(=O)c1c(-c2ccccc2)noc1C (stereo not given),-9%
O=C1N(Cc2cccnc2)C[C@@H]2C[C@@H](c3cccc(OC4CCCC4)c3)N3CCC[C@@]123,-7%
C[C@@H]1O[C@H](O[C@@H]2[C@H](C)O[C@H](O[C@@H]3[C@H](C)O[C@H](O[C@H]4CC[C@]5(C)[C@@H](CC[C@@H]6[C@H]5C[C@@H](O)[C@]5(C)[C@@H](C7=CC(=O)OC7)CC[C@]65O)C4)C[C@@H]3O)C[C@@H]2O)C[C@H](O)[C@@H]1O,-2%
CCCCN1C(=O)C2C(c3ccc(OC)cc3O)NC(CC(C)C)(C(=O)O)C2C1=O (stereo not given),-27%

# Reprinted from the part before: five entries; new compounds follow.
SMILES,VDR inhibitor
Cc1ccc(C(=O)O)cc1-c1ccc(/C=C2\SC(=O)N(CC(=O)Nc3ccc4c(c3)OCO4)C2=O)o1,-7%
CCC1CCCCN1C(=O)c1c(-c2ccccc2)noc1C (stereo not given),-9%
O=C1N(Cc2cccnc2)C[C@@H]2C[C@@H](c3cccc(OC4CCCC4)c3)N3CCC[C@@]123,-7%
C[C@@H]1O[C@H](O[C@@H]2[C@H](C)O[C@H](O[C@@H]3[C@H](C)O[C@H](O[C@H]4CC[C@]5(C)[C@@H](CC[C@@H]6[C@H]5C[C@@H](O)[C@]5(C)[C@@H](C7=CC(=O)OC7)CC[C@]65O)C4)C[C@@H]3O)C[C@@H]2O)C[C@H](O)[C@@H]1O,-2%
CCCCN1C(=O)C2C(c3ccc(OC)cc3O)NC(CC(C)C)(C(=O)O)C2C1=O (stereo not given),-27%
COCCn1c(C)cc(/C=N/NC(=O)c2cccnc2)c1C,-7%
O=C(NCCc1ccccc1)C(=O)NCCC1CCCCN1S(=O)(=O)c1ccccc1 (stereo not given),-5%
Cc1ccc(NC(=O)CNC(=O)c2cccs2)cc1S(=O)(=O)Nc1ccc(Cl)cc1,-8%
Oc1ccccc1N1CCN(c2ncnc3scc(-c4ccccc4)c23)CC1,18%
Cc1cc(C(=O)NNS(=O)(=O)c2cccc(Cl)c2)nn1C(C)(C)C,-10%
Cc1ccc2nc(SCC(=O)Nc3ccc4c(c3)OCO4)nc(=O)n2c1,12%
CN(C(=O)c1ccccn1)c1nnc(-c2cccnc2)s1,7%
CC(C)(C)n1nnnc1C(c1cccnc1)N1CCN(C2CCCCC2)CC1 (stereo not given),4%
Cc1ccc2nc(NC(=S)NC(=O)c3cccs3)sc2c1,-7%
CCc1ccc(CN(Cc2ccco2)c2cnc(S(C)(=O)=O)nc2C(=O)Nc2ccc(C)c(Cl)c2)cc1,-9%
CCc1nccn1CCC(=O)NC1CC(C)(C)Cc2c1cnn2-c1ccc(OC)cc1 (stereo not given),-2%
CCCCN1C(=O)C(C#N)CC2=C1CC(C)(C)CC2=O (stereo not given),-14%
Cc1ccc(-c2c(C)sc(=NC(=O)c3ccco3)n2C)cc1,-11%
COc1ccc(-c2noc(CN3CCN(C(=O)c4cccs4)CC3)n2)c(OC)c1OC,-19%
CCCc1cc(=O)[nH]c(SCC(=O)c2c(N)n(C3CC3)c(=O)[nH]c2=O)n1,11%
Cc1cc(C(=O)OC(C(=O)Nc2cccc(C(F)(F)F)c2)c2ccccc2)c(C)o1 (stereo not given),16%
COC(=O)c1ccc(OCCOc2ccccc2C)cc1,-8%
COC(=O)Cn1cc(C#N)c2ccccc21,-9%
CC(=O)N1N=C(c2ccc(C)cc2)OC1c1cccnc1 (stereo not given),5%
O=C(COC(=O)c1ccc([N+](=O)[O-])o1)Nc1ccc(Br)cc1F,-15%
CN(c1nc2c(c(=O)n(C)c(=O)n2C)n1CC(=O)c1ccccc1)C1CCCCC1,13%
CC(=O)c1ccc(NC(=O)COC(=O)CCc2ccc(S(=O)(=O)N3CCOCC3)cc2)cc1,-1%
CCCN1CNc2c(c(=O)[nH]c(=S)n2CCc2cccc(Cl)c2Cl)C1,?
CCOc1ccc(C(=O)NC2C(=O)N3C(C(=O)O)=C(COC(C)=O)CSC23)cc1OCC (stereo not given),?
COc1ccccc1-c1ccc(/C=C2/C=C(CC(C)C)OC2=O)o1,?
SMILES,VDR inhibitor
COc1cnn(-c2ccc(C)cc2)c(=O)c1Cl,1%
CC(=O)OC1=C(C(C)=O)N(Cc2ccccc2)S(=O)(=O)c2ccccc21,8%
Cc1ccc(C(=O)OCC(=O)NC2CCCCC2)cc1S(=O)(=O)N1CCCCC1,-16%
Cc1cc(C)cc(NC(=O)CCCCCN2C(=O)[C@@H]3Cc4ccccc4CN3C2=O)c1,21%
CC(=O)Nc1ccc2c(c1)Cc1c-2cc(Cl)c(NC(C)=O)c1Cl,4%
Cc1oc(-c2ccccc2F)nc1CS(=O)CC(=O)NC1CCCC1 (stereo not given),-15%
CCOC(=O)C1CCN(C(=S)NC2CCCC2)CC1,-3%
CC(=O)OCC(NC(=O)C(C)NC(=O)OC(C)(C)C)C1OC(n2cc(C)c(=O)[nH]c2=O)C(OC(C)=O)C1OC(C)=O (stereo not given),-7%
COCC(=O)NC1(c2nnnn2CCOC(=O)Nc2ccc(Cl)cc2)CCCCC1,-8%
CN(C(=O)c1cccc(N2C(=O)C3C4C=CC(C4)C3C2=O)c1)C1CCCCC1 (stereo not given),1%
CC(=O)Nc1ccc(NC(=O)CN2C(=O)COc3ccc(S(=O)(=O)N4CCCCC4)cc32)cc1,-7%
NC(=O)c1cnn2c(-c3ccc(Cl)cc3Cl)ccnc12,33%[activator]
O=C(CCn1nc(-c2ccccc2)ccc1=O)N1CCN(c2ccccn2)CC1,-4%
COc1ccc(CNC(=S)NC2CCCCC2)cc1,5%
COc1ccc(NC(=O)c2ccc3c(c2)OCO3)cc1,5%
O=[N+]([O-])c1cccc(/C(=N/N=C/c2ccccc2Br)C23CN4CN(CN(C4)C2)C3)c1,-5%
CC(C)CNS(=O)(=O)c1cc(C(=O)N2CCOCC2)c(Cl)cc1Cl,-2%
Cc1cc(-c2nnco2)c(C)n1-c1ccc(F)cc1,-8%
O=C(O)c1cccc(N2C(=O)Nc3ccccc3N2O)c1,-6%

# Sorted by the number under VDR inhibitor (smallest number first): 3 of the compounds above
SMILES,VDR inhibitor
CC(C)CNS(=O)(=O)c1cc(C(=O)N2CCOCC2)c(Cl)cc1Cl,-2%
CC(=O)Nc1ccc2c(c1)Cc1c-2cc(Cl)c(NC(C)=O)c1Cl,4%
COc1ccc(NC(=O)c2ccc3c(c2)OCO3)cc1,5%

# A portion of the library (hit frequency here may not be typical).
